Screening data deposited in PubChem by Broad Institute.
Yeast UUG start: alters start codon recognition fidelity in yeast; S. cerevisiae UUG-firefly luciferase reporter, luminescence/redox ratio; activity score, % at 18.7 µM; hit rate 0.13% among 350,000;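 active = replicate mean at a twofold rise or more, about +100% in these data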;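 also: firefly luciferase made from a UUG start codon reports start codon fidelity; reporter light over untreated wells divided by growth signal over untreated wells; some hits fall short of that in this replicate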
Env fusion inh: blocks HIV Env-driven cell-cell fusion; AID 651610; hit rate 1.1% among 360,000; HeLa-JRFL Env/CEM21 cell fusion, luciferase; inhibition, % at 12.3 µM;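 active = mean replicate inhibition score of at least 50 and every replicate individually at or above 50; inconclusive = only one of the two criteria met; inactive = mean below 50 and not all replicates reaching 50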;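 also: 0% = plate neutral controls and 100% = maraviroc near 300 nM; one replicate is shown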
An asterisk follows results filed as active; ? = inconclusive; [ ] = remark or other dose. Only part of the results is shown; count on the stated rates, not on these rows.

Yeast UUG start,Env fusion inh,Molecule
-8,-15[16.7 µM],CN1C(=O)c2cc(NC(=O)C3CCOCC3)ccc2OC[C@H]2O[C@H](CC(=O)O)CC[C@H]21
10,19[16.7 µM],CNC[C@@H]1Oc2cc(C#Cc3ccc(F)cc3)ccc2S(=O)(=O)N([C@@H](C)CO)C[C@H]1C
-7,57*[16.7 µM],C[C@H]1CCCCO[C@@H](CN(C)Cc2ccccc2)[C@@H](C)CN([C@@H](C)CO)C(=O)c2cc(NC(=O)Nc3ccc4c(c3)OCO4)ccc2O1
-8,6[16.7 µM],CC(C)NC(=O)N(C)C[C@H]1Oc2ncc(C#Cc3ccccc3F)cc2C(=O)N([C@@H](C)CO)C[C@H]1C
-14,-9[16.7 µM],O=C(N[C@H]1CC[C@@H](CCNC(=O)C2CCCC2)O[C@H]1CO)c1ccncc1
-30,2[16.7 µM],CO[C@@H]1CN(C)C(=O)c2ccc(NC(C)=O)cc2OC[C@@H](C)N(Cc2ccccn2)C[C@@H]1C
-14,-14[16.7 µM],C[C@H](CO)N1C[C@H](C)[C@H](CN(C)Cc2ccc(C(=O)O)cc2)Oc2c(NC(=O)C3CCOCC3)cccc2C1=O
-7,-24[16.7 µM],CC(C)C#Cc1cnc2c(c1)C(=O)N([C@@H](C)CO)C[C@H](C)[C@H](CN(C)C(=O)Nc1ccc(F)cc1)O2
-3,0[16.7 µM],C[C@H](CO)N1C[C@H](C)[C@@H](CN(C)C(=O)NC2CCCCC2)Oc2ccc(NC(=O)Nc3cccc4ccccc34)cc2CC1=O
-18,-5[16.7 µM],CC(=O)N[C@H]1CC[C@H](CCNC(=O)C2CC2)O[C@@H]1CO
-4,-1[16.7 µM],COc1ccc(NC(=O)Nc2ccc3c(c2)[C@H]2C[C@@H](CC(=O)N4CCOCC4)O[C@H](CO)[C@H]2O3)cc1
7,9[16.7 µM],O=C(N[C@H]1CC[C@@H](CCNC(=O)C2CCCCC2)O[C@H]1CO)c1ccccn1
0,-19[16.7 µM],Cc1ccc(S(=O)(=O)NCC[C@H]2CC[C@@H](NC(=O)CCN3CCCCC3)[C@H](CO)O2)cc1
11,11[16.7 µM],C[C@@H]1CN([C@@H](C)CO)C(=O)c2cc(NC(=O)Nc3cccc4ccccc34)ccc2O[C@@H](C)CCCCO[C@H]1CN(C)Cc1ccc2c(c1)OCO2
2,15[16.7 µM],CN(C)C(=O)[C@@]1(Cc2ccccc2)N=C(c2ccc(OCCCO)cc2)O[C@H]1c1ccccc1
20,7[16.7 µM],O=C(Cc1ccccn1)NCC[C@@H]1CC[C@H](NC(=O)Nc2ccccc2)[C@@H](CO)O1
3,-8[16.7 µM],C[C@@H]1CN([C@@H](C)CO)S(=O)(=O)c2ccc(-c3ccc(C(=O)N(C)C)cc3)cc2O[C@@H]1CN(C)C(=O)Cc1ccccn1
-12,-3,CCOc1ccc(C(=O)N2CCN(S(=O)(=O)c3ccc4c(c3)OCCO4)CC2)cc1OCC
-12,9[16.7 µM],C[C@@H]1CN([C@@H](C)CO)C(=O)c2cccc(NC(=O)C3CCOCC3)c2O[C@@H]1CN(C)Cc1ccc(C(=O)O)cc1
19,-10[16.7 µM],C[C@H]1CN([C@@H](C)CO)C(=O)c2cc(NS(=O)(=O)c3ccc(Cl)cc3)ccc2O[C@@H]1CN(C)S(=O)(=O)c1ccc(F)cc1
-4,-7[16.7 µM],O=C(C[C@@H]1C[C@H]2c3cc(NC(=O)Nc4ccc(C(F)(F)F)cc4)ccc3O[C@H]2[C@H](CO)O1)NCCc1ccccc1
1,6[16.7 µM],COc1cccc(NC(=O)N[C@@H]2CC[C@H](CC(=O)N3CCN(C)CC3)O[C@H]2CO)c1
-7,-11[16.7 µM],C[C@H]1CCCCO[C@H](CN(C)C(=O)Nc2cccc3ccccc23)[C@@H](C)CN([C@@H](C)CO)C(=O)c2cc(NC(=O)c3ccccc3)ccc2O1
16,-9[16.7 µM],C[C@H]1CN([C@@H](C)CO)C(=O)c2cc(-c3ccccc3F)cnc2O[C@H]1CN(C)C(=O)C1CC1
10,-11[16.7 µM],C[C@H](CO)N1C[C@H](C)[C@@H](CN(C)S(=O)(=O)c2cccs2)Oc2c(NC(=O)c3ccc(-c4nccs4)cc3)cccc2C1=O
15,4[16.7 µM],C[C@@H]1CN([C@@H](C)CO)C(=O)c2cccc(NC(=O)Nc3ccc(F)cc3)c2O[C@H]1CN(C)S(=O)(=O)c1ccccc1
-12,0[16.7 µM],C[C@@H]1CN([C@@H](C)CO)C(=O)c2cc(NC(=O)Nc3ccc(C(F)(F)F)cc3)ccc2O[C@H]1CN(C)S(=O)(=O)c1ccc(F)cc1
-25,-28[16.7 µM],C[C@@H]1CN([C@H](C)CO)C(=O)c2cc(C#C[C@@H](C)O)cnc2O[C@H]1CN(C)Cc1ccccn1
-9,?,C[C@H](CO)N1C[C@H](C)[C@H](CN(C)C(=O)Nc2ccc(C(F)(F)F)cc2)Oc2ccc(NC(=O)NC3CCCCC3)cc2C1=O
-14,2[16.7 µM],C[C@@H]1CN([C@H](C)CO)C(=O)c2cc(NC(=O)Nc3ccc(F)cc3)ccc2O[C@@H]1CN(C)S(=O)(=O)c1ccc(Cl)cc1
17,70*[16.7 µM],C[C@H]1CCCCO[C@@H](CN(C)Cc2ccccc2)[C@@H](C)CN([C@@H](C)CO)C(=O)c2cc(NC(=O)Nc3ccc(F)cc3)ccc2O1
8,7[16.7 µM],Cc1noc(C)c1NC(=O)Nc1ccc2c(c1)C(=O)N([C@@H](C)CO)C[C@@H](C)[C@@H](CN(C)C(=O)NC1CCCCC1)OCCCC[C@H](C)O2
-4,9[16.7 µM],COc1ccc(NC(=O)N(C)C[C@@H]2OCCCC[C@@H](C)Oc3ccc(NS(=O)(=O)c4ccc(Cl)cc4)cc3C(=O)N([C@@H](C)CO)C[C@@H]2C)cc1
-12,7[16.7 µM],O=C(N[C@@H]1CC[C@H](CCNC(=O)C2CCCCC2)O[C@H]1CO)c1ccncc1
18,2[16.7 µM],CCC(=O)N(C)C[C@H]1Oc2ncc(-c3ccc(C(=O)N(C)C)cc3)cc2C(=O)N([C@@H](C)CO)C[C@@H]1C
2,-18[16.7 µM],CO[C@@H]1CN(C)C(=O)c2ccc(NC(=O)C3CC3)cc2OC[C@@H](C)N(CC2CCOCC2)C[C@H]1C
-7,-17[16.7 µM],CO[C@H]1CN(C)C(=O)c2cc(NC(C)=O)ccc2OC[C@@H](C)N(Cc2cc(F)ccc2F)C[C@H]1C
5,24[16.7 µM],CO[C@@H]1CN(C)C(=O)c2cc(NC(=O)Nc3cc(F)ccc3F)ccc2OC[C@@H](C)N(C(=O)c2ccccn2)C[C@@H]1C
-8,7[16.7 µM],C[C@@H]1CN([C@H](C)CO)C(=O)c2cc(C#CC3CCCCC3)cnc2O[C@@H]1CN(C)Cc1ccncc1
0,13[16.7 µM],CC(C)NC(=O)N(C)C[C@@H]1Oc2ncc(C#CC3CCCCC3)cc2C(=O)N([C@H](C)CO)C[C@@H]1C
3,10[16.7 µM],O=C(C[C@H]1C[C@H]2c3cc(NC(=O)NC4CCCC4)ccc3O[C@H]2[C@H](CO)O1)NCc1ccc(Oc2ccccc2)cc1
-10,6[16.7 µM],C[C@H]1CN([C@@H](C)CO)C(=O)Cc2cc(NC(=O)c3ccncc3)ccc2O[C@@H]1CN(C)Cc1ccc(C(F)(F)F)cc1
8,13[16.7 µM],C[C@H]1CN([C@@H](C)CO)S(=O)(=O)c2ccc(-c3ccccc3F)cc2O[C@@H]1CN(C)S(C)(=O)=O
5,-6[16.7 µM],COc1ccc(NC(=O)Nc2ccc3c(c2)C(=O)N([C@@H](C)CO)C[C@@H](C)[C@H](CN(C)C(=O)Nc2ccc4c(c2)OCO4)O3)cc1
0,-29[16.7 µM],CCCC#Cc1ccc2c(c1)O[C@@H](CN(C)C(=O)c1cccnc1)[C@@H](C)CN([C@@H](C)CO)S2(=O)=O
-2,-2[16.7 µM],COc1ccc(CN2C[C@@H](O)COC[C@H]3O[C@@H](CC(=O)NCc4ccccc4Cl)CC[C@@H]32)cc1
-15,2[16.7 µM],O=C(C[C@@H]1C=C[C@H](NC(=O)c2ccc(F)cc2)[C@H](CO)O1)NCCc1ccncc1
-4,-21[16.7 µM],C[C@H]1CN([C@@H](C)CO)C(=O)c2cc(C#CCN(C)C)cnc2O[C@H]1CN(C)C(=O)Cc1ccccc1
6,4[16.7 µM],C[C@@H]1CCCCO[C@@H](CN(C)Cc2ccc(C(F)(F)F)cc2)[C@@H](C)CN([C@H](C)CO)C(=O)c2cc(NS(=O)(=O)c3ccc(Cl)cc3)ccc2O1
-7,13[16.7 µM],O=C(C[C@@H]1C=C[C@H](NC(=O)Nc2ccc3c(c2)OCO3)[C@@H](CO)O1)NCc1ccc(Cl)cc1

Three compounds already listed, ordered by length of the SMILES, ascending.
Yeast UUG start,Env fusion inh,Molecule
-15,2[16.7 µM],O=C(C[C@@H]1C=C[C@H](NC(=O)c2ccc(F)cc2)[C@H](CO)O1)NCCc1ccncc1
-4,-21[16.7 µM],C[C@H]1CN([C@@H](C)CO)C(=O)c2cc(C#CCN(C)C)cnc2O[C@H]1CN(C)C(=O)Cc1ccccc1
5,-6[16.7 µM],COc1ccc(NC(=O)Nc2ccc3c(c2)C(=O)N([C@@H](C)CO)C[C@@H](C)[C@H](CN(C)C(=O)Nc2ccc4c(c2)OCO4)O3)cc1

(cont.)
Yeast UUG start,Env fusion inh,Molecule
-12,46[16.7 µM],COc1ccc(S(=O)(=O)Nc2ccc3c(c2)C(=O)N([C@H](C)CO)C[C@@H](C)[C@H](CN(C)C(=O)Nc2c(C)noc2C)O3)cc1
-11,-2[16.7 µM],O=C(C[C@@H]1C[C@H]2c3cc(NC(=O)c4ccc5c(c4)OCO5)ccc3O[C@H]2[C@@H](CO)O1)NCC1CC1
-6,84*[16.7 µM],O=C(C[C@H]1C[C@H]2c3cc(NC(=O)NC4CCCC4)ccc3O[C@H]2[C@@H](CO)O1)NC1CCCCC1
3,4[16.7 µM],Cc1noc(C)c1S(=O)(=O)N(C)C[C@H]1Oc2ccc(NC(=O)NC(C)C)cc2CC(=O)N([C@@H](C)CO)C[C@H]1C
1,-37[16.7 µM],COc1ccc(S(=O)(=O)Nc2cccc3c2O[C@@H](CN(C)C(=O)Nc2ccccc2)[C@@H](C)CN([C@H](C)CO)C3=O)cc1
-20,10[16.7 µM],CC(C)NC(=O)N(C)C[C@H]1OCCCC[C@@H](C)Oc2ccc(NC(=O)Nc3ccc4c(c3)OCO4)cc2C(=O)N([C@@H](C)CO)C[C@H]1C
-5,-3[16.7 µM],Cc1ccc(-c2ccc3c(c2)O[C@H](CN(C)C(=O)CN(C)C)[C@H](C)CN([C@H](C)CO)S3(=O)=O)cc1
9,-12[16.7 µM],CNC[C@@H]1Oc2cc(C#C[C@H](C)O)ccc2S(=O)(=O)N([C@@H](C)CO)C[C@@H]1C
5,8[16.7 µM],CCCN(C)C[C@H]1Oc2ncc(C#CC3CC3)cc2C(=O)N([C@@H](C)CO)C[C@H]1C
-10,-17[16.7 µM],CC(C)NC(=O)Nc1ccc2c(c1)C(=O)N([C@@H](C)CO)C[C@@H](C)[C@H](CN(C)C(=O)Nc1ccc(F)cc1)OCCCC[C@@H](C)O2

Compound profiles, as listed above:
CNC[C@@H]1Oc2cc(C#C[C@H](C)O)ccc2S(=O)(=O)N([C@@H](C)CO)C[C@@H]1C across the screens: Yeast UUG start: 9; Env fusion inh: -12[16.7 µM]
CCCN(C)C[C@H]1Oc2ncc(C#CC3CC3)cc2C(=O)N([C@@H](C)CO)C[C@H]1C across the screens: Yeast UUG start: 5; Env fusion inh: 8[16.7 µM]
O=C(C[C@@H]1C[C@H]2c3cc(NC(=O)c4ccc5c(c4)OCO5)ccc3O[C@H]2[C@@H](CO)O1)NCC1CC1 across the screens: Yeast UUG start: -11; Env fusion inh: -2[16.7 µM]

The list continues:
Yeast UUG start,Env fusion inh,Molecule
6,-8[16.7 µM],C[C@@H]1CN([C@H](C)CO)S(=O)(=O)c2ccc(C#CC3CCCC3)cc2O[C@@H]1CN(C)C
-12,8[16.7 µM],C[C@@H]1CN([C@@H](C)CO)S(=O)(=O)c2ccc(C#C[C@@H](C)O)cc2O[C@H]1CN(C)C
-3,-30[16.7 µM],C[C@@H]1CN([C@H](C)CO)S(=O)(=O)c2ccc(-c3cccc(C#N)c3)cc2O[C@@H]1CN(C)C
33,0[16.7 µM],C[C@H](CO)N1C[C@H](C)[C@@H](CN(C)C(=O)c2ccccc2)Oc2ncc(C#CC3CC3)cc2C1=O
-6,1[16.7 µM],C[C@@H]1CCCCO[C@H](CN(C)C(=O)CCC(F)(F)F)[C@@H](C)CN([C@@H](C)CO)C(=O)c2cc(NS(=O)(=O)c3cn(C)cn3)ccc2O1
17,-28[16.7 µM],CC(C)NC(=O)Nc1ccc2c(c1)C(=O)N([C@H](C)CO)C[C@H](C)[C@H](CN(C)Cc1ccc3c(c1)OCO3)OCCCC[C@H](C)O2
1,12[16.7 µM],C[C@@H]1CCCCO[C@H](CN(C)Cc2ccncc2)[C@@H](C)CN([C@H](C)CO)C(=O)c2cc(NS(=O)(=O)c3cccs3)ccc2O1
-6,-6[16.7 µM],C[C@@H]1CN([C@@H](C)CO)C(=O)c2cc(Br)cnc2O[C@@H]1CN(C)Cc1ccc(C(=O)O)cc1
-10,8[16.7 µM],COc1ccccc1C#Cc1ccc([C@@H]2[C@@H](CO)N(C(=O)C3CCCCC3)[C@H]2C#N)cc1
-16,7[16.7 µM],O=C(C[C@H]1CC[C@H](NC(=O)Nc2cc(F)ccc2F)[C@H](CO)O1)Nc1ccccc1
